miR-21 FLuc: qHTS Assay for Modulators of miRNAs and/orActivators of miR-21; HeLa miR-21 FLuc reporter, luciferase, 48 h; 340,000 tested, under 10 active; Potency, µM (doses to about 38.3 µM), for the others: top-dose reporter change, positive = more light; active = well fitted rising curve with a large enough effect; inconclusive = small, poorly fitted or top-dose-only effect; inactive = no such curve, though single readings can be large or run the other way;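 note: % of control where 0% means no effect; miR-21 action dims this reporter so a rising signal means less miR-21 action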
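Using DMEM plus 10% FBS, HeLa miR-21-FLuc cells are incubated with test compounds (final up to about 40uM) for 48 hours; firefly luciferase signal is then imaged following reagent-mediated lysis.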
GLA inh pH 4.5: qHTS Assay for Inhibitors of Human alpha-Galactosidase at pH 4.5; purified enzyme, 4-MU-alpha-Gal fluorescence, pH 4.5; activity change, negative = inhibition, % at 105 µM; 230,000 tested, under 10 active; AID 1467, 2008; inconclusive = small, poorly fitted or top-dose-only inhibition, or a rising curve; inactive = flat fitted curve, though single readings scatter; no compound was filed as active;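 note: 0% = full activity with enzyme and -100% = basal without enzyme; dose as in the result columns while the protocol names 77 µM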
Target sequence (P06280 whole entry, looked up): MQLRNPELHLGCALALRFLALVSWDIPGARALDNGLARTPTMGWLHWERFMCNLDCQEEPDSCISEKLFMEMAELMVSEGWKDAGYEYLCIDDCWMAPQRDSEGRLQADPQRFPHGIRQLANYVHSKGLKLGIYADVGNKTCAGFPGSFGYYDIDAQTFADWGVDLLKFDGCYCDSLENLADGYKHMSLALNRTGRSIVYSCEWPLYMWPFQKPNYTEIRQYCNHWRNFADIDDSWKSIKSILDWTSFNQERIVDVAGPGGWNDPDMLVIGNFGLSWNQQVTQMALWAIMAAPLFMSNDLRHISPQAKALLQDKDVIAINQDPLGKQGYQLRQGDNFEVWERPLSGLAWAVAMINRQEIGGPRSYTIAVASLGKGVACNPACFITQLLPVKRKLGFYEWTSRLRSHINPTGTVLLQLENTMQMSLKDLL
Rango complex inh: qHTS Assay for Inhibitors of Rango (Ran-regulated importin-beta cargo) - Importin beta complex formation; Importin subunit beta-1 (Homo sapiens), Q14974; hit rate 0.031% among 340,000; Potency, µM (doses to about 92.2 µM), inactives show top-dose inhibition of complex formation; Rango CFP/YFP FRET sensor + importin beta, 45 min; active = rising FRET ratio curve, often small or poorly fitted; inconclusive = mostly compound fluorescence or quenching in the first reads; inactive = flat curves in all reads;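 note: potency is the fitted concentration of half-maximal effect; 0% = DMSO wells and 100% = buffer wells lacking importin beta; nearly all actives have a fitted effect of over 15% in size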
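FRET biosensor (snurportin 1 IBB flanked by EYFP and cerulean), 50 nM, with compound 5 min, then 0.125 microM importin beta in PBS, 1 mM DTT, 0.02% Tween-20, 0.1% BSA. CFP/YFP ratio read after 45 min at room temperature; pre-read flags interference.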
Rango release inh: qHTS Assay for Inhibitors of RanGTP induced Rango (Ran-regulated importin-beta cargo) - Importin beta complex dissociation; Potency, µM (series often up to 46.1 µM), for inactives: at the highest dose activity change, negative = inhibition; Biochemical FRET Rango-importin beta, RanGTP-induced dissociation; AID 540253, 2011; hit rate 0.071% among 340,000; Snurportin-1 (Homo sapiens) + GTP-binding nuclear protein Ran (Homo sapiens) + Importin …; active means falling FRET ratio curve, often poorly fitted, with flat reads before Ran was added; inconclusive means other falling curves, or compound fluorescence or quenching; inactive means flat or rising ratio curve;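 note: potency is the fitted concentration of half-maximal effect; % of control where 0% means no effect; nearly all actives have a fitted effect of over 45% in size; -100% = wells without RanGTP and RCC1; the record marks most hits as doubtful in a second field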
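Two FRET readings bracket the reaction: one 5 min after compound meets Rango–importin beta, another 45 min after RanGTP-RCC1 (0.6 uM Ran, 0.2 uM RCC1, 2 mM GTP) is added. Only the second defines inhibition.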
Starred values were filed as active, the others as inactive; u = inconclusive; x = not tested or not shown; & = joins results of further samples. Not all compounds are listed; count on the stated rates, not on these rows.

SMILES	miR-21 FLuc	GLA inh pH 4.5	Rango complex inh	Rango release inh
COC(=O)c1sccc1NC(=O)c1ccnn1C	-3.8%	x	0.5%	-7.3%
COc1ccc2c(c1)C(=NNc1ccc(C(=O)O)cc1)c1cc(OC)ccc1-2	-2.2%	x	-1.8%	-10.6%
CN(CCCC(=O)NC1CC(C)(C)NC(C)(C)C1)S(=O)(=O)c1ccc([N+](=O)[O-])cc1	0.4%	5.6	4.5%	-2.5%
COC(=O)c1cc(-c2cccs2)[nH]n1	-14.8%	5.1	-2.6%	20.3%
CCCCn1c(=O)nc2n(-c3ccc(OC)cc3)c3ccccc3cc-2c1=O	0.6%	12.2	u	u
N#CCCn1cc(C(=O)N2CCOCC2)c(-c2ccc3c(c2)OCCO3)n1	-2.6%	1.7	-0.4%	-9.7%
CCCCOC(=O)C1=C(C)NC(=O)NC1c1cccc([N+](=O)[O-])c1 (configuration not stated)	4.4%	x	2.1%	3.0%
COc1ccc(C)cc1NC(=S)NNC(=O)c1c(Br)cnn1C	-10.6%	-2.1	-1.3%	-10.0%
COc1ccc(Nc2nc(N3CCCCC3)nc3ccccc23)c(OC)c1	22.7%	0.1	7.0%	1.0%
COc1ccc(CN2C(=NC(=O)COc3ccccc3)SC3CS(=O)(=O)CC32)cc1 (configuration not stated)	-3.3%	x	-0.6%	-0.4%
CCOC(=O)/C(N=Nc1cc(C(=O)O)cc(C(=O)O)c1)=C(\O)CCl	-4.6%	-4.3	0.7%	-6.6%
Cc1cccc(N2CC(C(=O)Nc3nnc(SCc4ccccn4)s3)CC2=O)c1 (configuration not stated)	-14.5%	x	-0.5%	-14.6%
CCN(CC)C(=O)c1[nH]cnc1C(=O)Nc1cccc(C)c1	x	x	7.3%	-2.4%
COC(=O)Cc1nnc(SCC(=O)Nc2ccccc2)c2ccccc12	-4.8%	x	-10.6%	-15.5%
COc1ccc(C)cc1-n1nnnc1SCn1nnc2ccccc2c1=O	-3.8%	4.3	0.0%	-5.7%
COc1ccc(N2CCN(C(=S)NCCc3ccccc3)CC2)cc1	x	x	4.9%	10.9%
COc1ccc(NC(=O)CN(C)C(=O)c2cn(-c3ccccc3)nc2-c2ccc(OC)cc2)cc1	x	x	-3.8%	14.2%
C=CC[C@@H](CC(=O)N[C@H](CO)Cc1ccccc1)C(=O)N[C@H](COC(=O)[C@@H](CC=C)CC(=O)OC(C)(C)C)Cc1ccccc1	x	x	-0.1%	-5.0%
COc1ccc(NC(=O)COC(=O)c2n[nH]c3ccccc23)c(OC)c1	x	x	-2.5%	0.1%
Cc1ccc(NC(=O)c2cc(N3C(=O)C4CCCCC4C3=O)ccc2N2CCOCC2)cc1 (configuration not stated)	-8.4%	2.1	1.3%	16.3%
Cc1ccc2cc(CN(Cc3cccs3)C(=O)c3ccco3)c3nnnn3c2c1C	1.4%	-10.7	x	x
CCOC(=O)C1(C(=O)O)NC(=O)CC1c1ccccc1 (configuration not stated)	0.5%	6.2	0.5%	-27.7%
COc1ccccc1OCC(=O)NCCSCc1cccc(Cl)c1	-10.6%	0.5	-1.5%	0.1%
COc1ccc(-c2cccc(C3CC=CC4C3C(=O)N(Cc3ccccc3)C4c3ccc(C(F)(F)F)cc3)c2)cc1 (configuration not stated)	6.0%	3.7	3.7%	-5.1%
O=C(Cc1cn2ccsc2n1)OCc1nc2ccccc2s1	0.0%	-14.8	-1.7%	-3.1%
N/C(=N\OC(=O)N1CCOCC1)c1ccccc1	-22.6%	10.0	-1.0%	-2.5%
COc1cccc(-c2cnc(OC(C)(C)C)nc2OC(C)(C)C)c1	-5.1%	-2.4	-0.1%	19.5%
CC(C)(C)c1cc(NC(=O)CCSc2nnc3ccccn23)cc(C(C)(C)C)c1	x	x	0.1%	11.9%
COC(=O)C(C(=O)NCC1CCCO1)C1CCCCCC1 (configuration not stated)	-3.2%	-6.3	-2.2%	0.5%
COc1ccc(N2CCN(C(=O)c3ccc(C)c(NC(=O)c4ccco4)c3)CC2)cc1	-2.2%	x	-0.5%	-6.9%
COc1cccc(CNC(=O)c2nnn(-c3ccc(OC(F)(F)F)cc3)c2N)c1	13.5%	-3.3	-5.5%	-0.6%
CC1CCCC(C)N1C(=O)CSCc1ccc(Cl)cc1 (configuration not stated)	-10.4%	0.7	0.2%	-17.6%
CC(=O)Nc1ccc(S(=O)(=O)N2CCc3cc4c(cc3C2C)OCCCO4)cc1 (configuration not stated)	0.9%	x	0.7%	1.8%
CS(=O)(=O)N(CC(=O)NCCSCc1ccco1)c1ccc2c(c1)OCO2	-0.3%	3.8	0.2%	-7.3%
Cc1cc(NC(=O)Nc2ccc(Cl)cc2)n(C)n1	-7.9%	x	3.2%	17.0%
COc1ccc(-c2nn(-c3ccccc3)cc2CNC(=O)c2cccc([N+](=O)[O-])c2)cc1	-1.6%	1.0	0.7%	1.3%

Compound profiles (already shown):
COc1cccc(-c2cnc(OC(C)(C)C)nc2OC(C)(C)C)c1 reads miR-21 FLuc: -5.1%; GLA inh pH 4.5: -2.4; Rango complex inh: -0.1%; Rango release inh: 19.5%
CC(=O)Nc1ccc(S(=O)(=O)N2CCc3cc4c(cc3C2C)OCCCO4)cc1 (configuration not stated) reads miR-21 FLuc: 0.9%; GLA inh pH 4.5: x; Rango complex inh: 0.7%; Rango release inh: 1.8%

Continued:
SMILES	miR-21 FLuc	GLA inh pH 4.5	Rango complex inh	Rango release inh
COCCn1c(=O)[nH]c2cc(C(=O)N3CCN(c4ccccc4)CC3)ccc2c1=O	14.0%&18.4%	x	2.6%	0.0%
CC(=O)Nc1ccc(C23CC4CC(CC(C4)C2)C3)cc1	-16.6%	x	-0.1%	2.1%
N=c1c2c(-c3ccccc3)c(-c3ccccc3)oc2ncn1CCCN1CCOCC1	2.1%	-7.6	-1.3%	1.8%
NS(=O)(=O)c1ccc(NC(=O)c2ccc3c(c2)CCCC3)cc1	-28.4%	x	-0.3%	5.0%
O=c1c(CN2CCN(Cc3ccccc3F)C(CCO)C2)coc2ccccc12 (configuration not stated)	-8.2%	x	1.1%	1.1%
COc1ccc(C2CCCN2C(=S)Nc2cccc(C)c2)cc1OC (configuration not stated)	-18.6%	-3.4	-3.6%	-15.9%
CC(C)C(=O)Nc1c(-c2cccc(Cl)c2)c(=O)c2ccccc2n1C	0.3%	x	u	1.2%
Cc1cc(C(=O)OCC(=O)NC(C)(C)C)c2ccccc2n1	-0.5%	6.2	0.9%	3.3%
O=C(Nc1nn[nH]n1)c1cc(-c2ccc(Cl)c(Cl)c2Cl)nc2ccccc12	2.6%	-1.9	0.4%	2.4%
Cc1ccccc1-c1nnc(SCc2ccccc2F)o1	-51.4%	-4.2	-1.7%	4.3%
COc1cccc(-c2nnc(SCC(=O)N3CC(C)CC(C)C3)o2)c1 (configuration not stated)	-8.4%	-5.0	-1.5%	-11.2%
CCCOC(=O)c1c(N)sc2c1CCC2	-1.4%	1.0	u	-24.4%
Clc1ccc(N=C2SCC3CCCCN23)cc1 (configuration not stated)	-42.4%	x	2.3%	12.1%
O=C(NCC(c1ccc(F)cc1)N1CCOCC1)c1nn(-c2ccccc2)c(=O)c2ccccc12 (configuration not stated)	x	x	1.7%	-8.6%
CC1CN(Cc2ccco2)C(=S)N(c2ccccc2)C1=O (configuration not stated)	x	x	-0.6%	0.7%
Cc1ccc(S(=O)(=O)N2CCC(c3nc4c(nnn4Cc4ccccc4)c(=O)[nH]3)CC2)cc1	-3.9%	-6.6	-3.5%	-0.5%
C/C(=N/NC(=O)Cn1nc2ccccc2n1)c1ccc(F)cc1	-6.0%	0.0	u	24.7%
COc1ccc(-n2nc(C(=O)NCC(=O)N3CCN(Cc4ccccc4)CC3)c3ccccc3c2=O)cc1	11.6%	x	0.4%	-13.0%
O=c1[nH]c(/C=C\c2ccc(O)c(Cl)c2)nc(O)c1[N+](=O)[O-]	-0.6%	x	-1.7%	8.1%
O=C(C1CC(=O)N(c2ccc3c(c2)OCCO3)C1)N1CCN(S(=O)(=O)c2ccc(F)cc2)CC1 (configuration not stated)	x	x	2.7%	0.3%
CNC(=S)N(Cc1ccco1)Cc1cc2cc(OC)ccc2[nH]c1=O	9.7%	-13.6	0.1%	15.9%
CN(C)c1nc(-c2ccccc2)c2cnn(Cc3ccccc3)c2n1	0.6%	5.2	u	-13.7%
COCCn1c(SCC(=O)N2CCCc3ccccc32)nc2c(c1=O)SC(C)C2 (configuration not stated)	-0.2%	5.8	-1.6%	14.0%
Cc1cc(=O)[nH]c(SCC(=O)Nc2cccc3ccccc23)c1C#N	-2.2%	-0.9	-6.0%	-14.8%
NNC(=S)NC1CCCCCCCCCCC1	2.7%	1.8	3.9%	-3.2%
CCOC(=O)N1CCN(Cc2nc3cc(NC(=O)C(C)C)ccc3n2C)CC1	-2.9%	x	-0.2%	-8.2%
COCCCNC(=O)C1Cc2cc(S(=O)(=O)N3CCCC3)ccc2N1C(C)=O (configuration not stated)	0.6%	x	-2.0%	-12.4%
N#C/C(=N\Nc1ccc(S(=O)(=O)N2CCCCC2)cc1)C(N)=S	15.4%	-11.5	u	26.4%
O=S(=O)(Cc1ccccc1)N1CCC(c2nc(-c3cccs3)no2)CC1	-8.2%	9.0	6.9%	-10.0%
CSc1ccc(/C=N/NC(=O)c2ccc(-n3cnnn3)cc2)cc1	x	x	-1.1%	-3.4%
Cc1c(C(=O)Nc2ccc(S(=O)(=O)N3CCOCC3)cc2)cccc1[N+](=O)[O-]	1.6%	x	3.4%	0.7%
COc1cc(Cl)ccc1NC(=O)COc1ccccc1C(=O)N1CCN(c2ccc(O)cc2)CC1	12.5%	2.5	6.8%	29.6%
Cn1c(SCC(=O)N/N=C/c2ccc(O)c(O)c2)nc2ccccc21	-24.8%	-4.0	-0.4%	15.5%
CN(CC(=O)Nc1c(Cl)cccc1Cl)C(=O)c1cccn1C	0.5%	x	-1.6%	-3.9%
CC1CC1C(=O)OCC(=O)N(C)c1c(N)n(Cc2ccccc2)c(=O)[nH]c1=O (configuration not stated)	x	x	1.2%	u
Nc1ccc(CN2CCOCC2)cc1	-0.1%	-1.4	-2.7%	5.4%
Fc1ccc(C2=Nn3c(Cc4ccccc4F)nnc3SC2)cc1	-23.3%	6.5	0.3%	0.1%
COc1cccc(-c2noc(CCCC(=O)Nc3ccc(C(N)=O)cc3)n2)c1	-6.8%	3.6	-1.2%	10.0%
CCOC(=O)N1CCN(C(=S)NC2CCCCC2)CC1	-14.5%	-10.1	-1.7%	4.9%
Cc1cccc(N2C(=O)CC(NNc3nc4ccccc4s3)C2=O)c1 (configuration not stated)	0.1%	-5.9	0.5%	-6.5%
O=C(OCCN1C(=O)c2ccccc2C1=O)c1cc(S(=O)(=O)N2CCOCC2)ccc1F	-0.2%	-2.5	-1.4%	0.2%
O=C1CCc2cc(S(=O)(=O)NCCc3ccccc3)cc3c2N1CC3	x	x	-0.5%	20.7%
COc1ccccc1N1CCN(C2CC(=O)N(c3cccc(Cl)c3)C2=O)CC1 (configuration not stated)	-15.6%	x	0.1%	-3.6%
CCCCC(=O)Nc1nnn(CCC)n1	0.0%	-5.2	0.8%	-5.0%
O=C(O)C(C1CCCCC1)C1(O)CCCC1 (configuration not stated)	x	x	3.2%	-5.6%
COc1cc(/C=C2/C(=O)NN(c3ccccc3)C2=O)cc(Br)c1O	-6.1%	x	-0.9%	2.3%
CCC(OC(=O)c1cc2sccc2n1C)C(=O)NCc1ccco1 (configuration not stated)	6.8%	3.0	4.0%	11.8%
OCCOCCOc1ccc(-c2nn[nH]n2)cc1	-0.3%	7.0	0.7%	11.6%
N#C/C(=C/c1cn(CC(=O)O)c2ccccc12)C(=O)Nc1ccccc1	-6.0%	-4.9	u	-14.2%
CCCCOc1ccc(CN2CCCCC2)cc1	-12.2%	-8.1	0.1%	0.8%
CN(C)C(=O)COc1ccc2cc(-c3ccccc3)c(=O)oc2c1	-33.6%	u	-4.4%	3.8%
CN(C)CCn1c(COc2ccccc2)nc2ccccc21	x	x	-5.7%	14.7%
